RecA intein inh: blocks M. tuberculosis RecA intein splicing; P9WHJ3; cell-free RecA intein splicing, fluorescence; inhibition, %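 (about 9 µM by stock and volumes)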; actives 0.75% (n = 290,000); in the data active = inhibition above about 30%; inconclusive = no clear call, values can overlap the other calls;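 note: 0% = vehicle wells and 100% = reference inhibitor control wells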
Target sequence (P9WHJ3 whole entry, looked up): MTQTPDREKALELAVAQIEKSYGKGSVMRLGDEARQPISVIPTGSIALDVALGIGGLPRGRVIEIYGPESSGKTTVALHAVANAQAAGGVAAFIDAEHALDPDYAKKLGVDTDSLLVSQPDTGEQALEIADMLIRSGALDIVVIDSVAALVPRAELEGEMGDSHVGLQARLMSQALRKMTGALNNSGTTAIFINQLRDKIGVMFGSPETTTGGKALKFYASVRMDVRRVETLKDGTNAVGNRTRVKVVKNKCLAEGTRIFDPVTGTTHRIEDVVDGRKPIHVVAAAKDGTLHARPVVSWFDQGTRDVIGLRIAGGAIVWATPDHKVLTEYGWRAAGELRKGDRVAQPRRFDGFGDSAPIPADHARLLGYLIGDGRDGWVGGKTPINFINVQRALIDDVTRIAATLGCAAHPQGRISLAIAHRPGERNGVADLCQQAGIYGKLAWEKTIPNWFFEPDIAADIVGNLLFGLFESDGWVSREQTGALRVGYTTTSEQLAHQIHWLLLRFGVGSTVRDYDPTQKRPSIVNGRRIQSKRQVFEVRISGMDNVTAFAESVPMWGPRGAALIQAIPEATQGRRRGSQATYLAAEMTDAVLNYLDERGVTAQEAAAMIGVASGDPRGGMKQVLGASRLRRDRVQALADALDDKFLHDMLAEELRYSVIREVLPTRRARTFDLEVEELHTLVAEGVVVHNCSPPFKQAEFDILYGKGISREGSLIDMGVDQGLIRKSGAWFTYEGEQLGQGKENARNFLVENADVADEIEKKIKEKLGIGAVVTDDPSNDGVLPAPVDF
YopH inh: inhibitors of Yersinia enterocolitica YopH tyrosine phosphatase; AID 898; inhibition, %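 (about 10 µM by stock and volumes)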; actives 0.16% (n = 140,000); fluorescence Ex485/Em525;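 active = inhibition of 50% or more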;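 note: controls were vehicle for no effect and minimum signal wells for full effect; inactives centre near -20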
Mtb H37Rv: M. tuberculosis H37Rv growth inhibitors, H37Rv strain (AID 1626) | M. tuberculosis H37Rv growth inhibition; higher % means a stronger effect | inhibition, % at 10 µM; hits with a dose series show IC50 in µM | actives 0.95% (n = 220,000);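 active = confirmed in a dose series; inconclusive = inhibition above 80% but not taken into the dose series; inactive = below 80% or under 30% at every dose of the series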;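 note: bacteria incubated seven days before Alamar blue readout; 0% = bacteria only wells and 100% = bacteria with antibiotic wells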
Arbovirus inh: blocks arbovirus infection. arbovirus infection cell-based antiviral screen. inhibition, % at 10 µM. actives 0.37% (n = 200,000). AID 1251;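 active = inhibition from about 30%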;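 note: bluetongue infection of BSR cells; cell survival read as ATP light after 72 h; 0% = infected wells without compound and 100% = uninfected wells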
Mtb bLac sens: beta-lactam sensitization of Mtb H37Rv | inhibition, % at 25 µM | actives 0.27% (n = 330,000) | AID 434955 | M. tuberculosis H37Rv growth with meropenem, percent inhibition; hits of this screen are not shown here;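 active = about 74% or more and at least 40 points above the plate without the antibiotic, then above 30% in a dose series; inconclusive = first-round hits that could not be retested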;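 note: growth measured after seven days incubation then overnight dye step; 0% = bacteria only wells and 100% = bacteria with antibiotic; twin plates without the antibiotic show which effects depend on it; some results filed as inactive read as strong as hits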
Arbovirus inh repeat: recorded beside Arbovirus inh, whose call it bears; inhibition, %; measured here: 10K subset replicate screen; many hits read low in the repeat;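 first of two repeat runs on a subset; 0% = infected and 100% = uninfected wells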
The depositor's hits bear a star; ? = inconclusive; . = no result given. The list is partial; rates above refer to the full screens.

SMILES	RecA intein inh	YopH inh	Mtb H37Rv	Arbovirus inh	Mtb bLac sens	others
COc1ccc(/C=N/NC(=O)CC(=O)NCc2cccnc2)cc1[N+](=O)[O-]	1.4	.	.	.	2
COc1ccc(/C(O)=C2\C(=O)C(=O)N(c3cc(C)on3)C2c2ccc(OC)c(OC)c2)cc1OC (stereo not drawn)	1.7	-29	-2%	-2	-9
O=C(Nc1nccs1)c1cc(-c2ccco2)nc2ccccc12	0.4	-21	11%	4	0
Cc1cccc(C(=O)OC(C)C(=O)NC(=O)NC2CCCCC2)c1O (stereo not drawn)	-5.9	.	.	.	-15
COc1ccc(C(C)(C)C)cc1NC(=O)COC(=O)c1cc(SC)ccc1Cl	1.9	-32	55µM*	-6	97
Cn1c(Cc2c[nH]c3ccccc23)n[nH]c1=S	2.1	-19	1%	1	-4
CCC(C)NC(=O)COC(=O)c1oc2ccccc2c1CSc1ccc(Cl)cc1 (stereo not drawn)	-0.8	-1	8%	17	9
O=c1cc(Cl)c2ccccc2n1-c1ccccc1	-2.8	.	.	.	-4
CC1CCN(C(=O)CSc2nc(=O)n3cc(Cl)ccc3n2)CC1	1.1	.	.	.	-7
CCCCCC1CC1C(=O)N/N=C/c1ccc(N(C)C)cc1 (stereo not drawn)	-3.8	-25	0%	-20	91
O=C(NC(=S)NC1CCS(=O)(=O)C1)c1ccccc1Br (stereo not drawn)	-2.5	.	.	.	1
Cn1/c(=N/N=C/c2ccc(N3CCOCC3)cc2)sc2ccccc21	3.9	.	4%	2	-5
CC(=O)Nc1ccc(CN2CCCC(C(=O)c3ccc(C(F)(F)F)cc3)C2)cc1 (stereo not drawn)	-5.1	.	3%	-13	-7
O=C(C1=C[C@H](c2csc3ccccc23)C[C@H](OCc2ccc(CO)cc2)O1)N1CCN(Cc2ccccc2)CC1	11	.	6%	-12	9
CCOc1ccc(N(CC(=O)N2CCN(c3ccc(F)cc3)CC2)S(=O)(=O)c2c(C)noc2C)cc1	0.5	.	.	.	-2
Cc1c(N/C(=N/S(=O)(=O)c2cc([N+](=O)[O-])ccc2Cl)c2ccccc2)c(=O)n(-c2ccccc2)n1C	-0.1	.	-9%	1	-2
COc1ccc(/C=C/C(=O)Nc2cccc(S(=O)(=O)NC3=NCCCCC3)c2)cc1	0.9	.	-3%	.	-3
COc1ccc(/C=N/NC(=O)c2cccnc2)cc1CN1CCOCC1	-2.5	.	-11%	.	-2
O=C(NC(=S)NC(CO)Cc1ccccc1)c1ccc(F)cc1 (stereo not drawn)	0.5	.	.	.	-8
O=C(COC(=O)CNS(=O)(=O)/C=C/c1ccccc1)NC1CCS(=O)(=O)C1 (stereo not drawn)	-4.0	-58	-8%	0	-3
O=C(CSc1nc(-c2ccco2)cc(C(F)(F)F)n1)N1CCc2ccccc2C1	1.5	-7	20%	14	0
COc1ccc(NC(=O)NC2(C(=O)N3CCN(C)CC3)CCCCC2)cc1	0.8	.	.	.	2
Cc1ccc(OCC(=O)N2CCc3ccccc32)c([N+](=O)[O-])n1	-1.3	.	-5%	-7	-5
NC(=O)C(Cc1ccccc1)NC(=O)C12CC3CC(CC(C3)C1)C2 (stereo not drawn)	-1.3	.	.	.	-1
O=C(CN1C(=O)NC2(CCc3ccccc32)C1=O)Nc1ccc(N2CCOCC2)cc1 (stereo not drawn)	-1.1	7	-6%	1	0
Cc1ccc(C)c(OCCC(=O)OCC(=O)NCc2ccc(F)cc2)c1	1.5	.	.	.	-11
Cc1ccccc1-c1cc(C(=O)Nc2sc(C(=O)OC(C)C)c(C)c2C#N)c2ccccc2n1	-0.3	-20	2%	6	2
CCOC(=O)c1c(-c2ccc(C)cc2)csc1NC(=O)CCN1CCOCC1	5.7	-12	26%	26	-6
CCOc1ccc(NC(=O)NC2CC(=O)N(c3ccc(OC)cc3)C2)cc1 (stereo not drawn)	-1.9	.	2%	-3	-8
CCS(=O)(=O)c1ncc(Cl)c(C(=O)Nc2ccccc2OC)n1	4.9	.	.	.	99
O=C(CN(Cc1ccccc1)C1=NCCS1)c1ccccc1	-0.6	-32	-4%	2	8
NC(=O)[C@@H]1CCCN1C(=O)c1cc(COc2ccc3c(c2)CCCC3)on1	-0.2	.	.	.	3
O=[N+]([O-])c1cccc(/C=C/c2nc(C=Nc3ccc4ccccc4c3)c(O)o2)c1	.	-7	.	-19	2
COc1ccc(C)cc1S(=O)(=O)N1CCC2(CC1)OCCN2S(=O)(=O)c1ccccc1	0.2	.	.	.	-3
COc1ccc(OC)c(C(C[N+](=O)[O-])c2c(C)cc3ccccn23)c1 (stereo not drawn)	1.1	.	.	.	85
CCOC(=O)C1=C(C)NC(=O)C1CC(=O)Nc1ccccc1 (stereo not drawn)	-2.4	-29	0%	8	0
O=C(COc1ccccc1Cl)Nc1ccccc1C(=O)NC1CC1	-1.3	.	.	.	-4
Cc1ccc(NC2Sc3ccccc3NC2=O)cc1 (stereo not drawn)	1.7	.	4%	4	6
CCn1c(SCC(=O)N2CCCCC2C)nnc1-c1ccco1 (stereo not drawn)	0.0	.	.	.	-1
C/C(CCc1ccc2c(c1)OCO2)=N\NC(=O)c1ccccc1Br	-1.1	.	4%	8	-5
Nc1ccc(C(=O)C(=O)c2ccc(N)cc2)cc1	-0.6	.	3%	.	-1
Cc1ccc(S(=O)(=O)C(C#N)=C2N(C)c3ccccc3N2C)cc1	-3.8	.	2%	2	-6
Cc1nnc(SCC(=O)N2CCCC2)n1-c1ccc(F)cc1	-0.5	.	.	.	0
Cc1ccccc1Nc1c(-c2cccnc2)nc2ccccn12	-5.0	.	4%	.	1
CC1CC(C)CN(C(=O)C2CCN(S(=O)(=O)c3cccc4cccnc34)CC2)C1 (stereo not drawn)	0.0	.	.	.	-6
Cc1ccc(NC(=O)CSc2nnc(C(F)(F)F)n2C)cc1[N+](=O)[O-]	-4.2	-25	77%	1	72
CCc1ccc(-c2nc(SCC(=O)NC3CCCC3)n[nH]2)cc1	1.8	.	.	.	6
O=C(NCCc1nc2ccccc2[nH]1)/C(=C/c1ccc2c(c1)OCO2)NC(=O)c1ccccc1Cl	-0.1	-12	3%	1	-5
O=C1CCC(C(=O)N2CCOCC2)CN1Cc1cccc(C(F)(F)F)c1 (stereo not drawn)	-1.3	.	.	.	4
O=C(O)Cc1ccc(NC(=O)C2CCCCC2C(=O)O)cc1 (stereo not drawn)	-0.1	-62	3%	5	-5	Arbovirus inh repeat=5
Cc1cccc(N/C=C/C(=O)c2cccs2)c1C	0.5	-27	-1%	8	5
Cc1cccc(-c2cc(C(=O)Nc3sc(C)c(C)c3C(N)=O)c3ccccc3n2)c1	-1.4	-14	.	-7	86
O=C(O)c1ccc(N=Nc2c(O)[nH]c3ccccc23)cc1	3.9	.	6%	.	1
CCn1c(C)c(P(=O)(N2CCOCC2)N2CCOCC2)c2ccccc21	1.0	.	1%	7	11
O=c1[nH]c(/C=C/c2cccc([N+](=O)[O-])c2)c([N+](=O)[O-])c(=O)[nH]1	4.8	.	.	.	3
COc1ccc(/C=N/NC(=O)c2ccc(NC(=O)c3ccccc3Br)cc2)cc1	0.9	-19	10%	-3	-3
Cc1cc(C)nc(N2CCCC(C(=O)NC(C)C)C2)n1 (stereo not drawn)	-2.3	.	-9%	7	-7
Cc1c(NS(=O)(=O)c2ccc(NC3CCCC3)c([N+](=O)[O-])c2)c(=O)n(-c2ccccc2)n1C	8.2	-15	-2%	2	3
Cc1sc2ncnc(N3CCCCC3)c2c1C	2.3	-10	-3%	15	49
CCCOc1ccc(C(=O)C(c2ccccc2)N2CCOCC2)cc1 (stereo not drawn)	1.8	-56	-3%	-7	-7
(list continues)
SMILES	RecA intein inh	YopH inh	Mtb H37Rv	Arbovirus inh	Mtb bLac sens	others
FC(F)(F)c1cccc(CN2CCSCC2)c1	-1.4	.	.	.	-3
COc1ccc(S(=O)(=O)N2CCC(C(=O)N[C@H](C(=O)NC3CCCC3)C(C)C)CC2)cc1	-0.7	.	.	.	6
CC(CCc1ccccc1)NC(=O)C(=O)Nc1ccccc1 (stereo not drawn)	-2.9	-26	6%	-24	-3
C[C@@H]1C[C@@H]2OC(=O)[C@]3(C)[C@H]2[C@@H](OC3(C)O)[C@]2(C)C(=O)CC[C@H]12 (stereo partly drawn)	-0.2	.	-2%	.	-3
O=C(CN(CC1CCCO1)C(=O)CNS(=O)(=O)c1ccc(Cl)cc1)NCc1ccc(F)cc1 (stereo not drawn)	1.6	.	.	.	4
COc1ccccc1-c1cnnc(N/N=C/c2ccc(-c3cccc(Br)c3)o2)n1	-0.8	-10	5%	7	-3
CCN(CC(=O)Nc1ccccc1C(F)(F)F)C(=O)c1cc(-c2cccs2)nn1-c1ccccc1	-3.0	.	.	.	-17
CC1CCN(C(=O)CSc2nc(C(C)C)nc3c2c(=O)n(C)c(=O)n3C)CC1	5.0	.	.	.	?
COC(=O)c1cccc(C(=O)Nc2ccc(C)cc2)n1	-6.2	-48	-4%	4	51
COc1cc2c(cc1NC(=O)c1cc(-c3cccnc3)nc3ccc(C)cc13)oc1ccccc12	-2.3	-10	23%	-13	30
CC(C)(C)c1ccc(-c2nnc(N)s2)cc1	-0.6	.	-3%	-1	14
COc1cccc(NC(=S)N2CCC(NC(=O)c3ccco3)CC2)c1	0.8	.	.	.	-1
CC(C)(C)NCc1cc(Cl)ccc1OCc1ccccc1F	1.0	.	1%	23	-4
CCOc1ccc(S(=O)(=O)N2CCC(C(=O)N3CCCCCC3)CC2)cc1C	1.1	.	.	.	-12
O=C(CN1C(=O)C2CCCCC2C1=O)Nc1ccc(S(=O)(=O)Nc2ncccn2)cc1 (stereo not drawn)	-0.7	.	-4%	5	3
COc1ccc(NC(=O)C(=O)Nc2cccc3cccnc23)cc1OC	-1.0	.	.	.	3
C/C(=N\NS(=O)(=O)c1ccc(C(C)(C)C)cc1)c1ccccc1	3.5	.	.	.	43
CC1=C(C(=O)OCC2CCCO2)C(c2ccsc2)C2=C(CC(C)(C)CC2=O)N1 (stereo not drawn)	-9.3	.	8%	20	1
COc1ccc(S(=O)(=O)Nc2cc3c4c(c2)CCN4C(=O)CC3)cc1	-1.5	.	.	.	-13
CC(=O)n1cc(/C=N/NC(=O)c2sc(C)nc2C)c2ccccc21	.	-68	-1%	-8	-4
O=C(c1ccc(COc2ccc(Cl)cc2Cl)o1)N1CCCC1	9.6	.	.	.	3
COc1cccc(NC(=O)c2nc3ncccn3n2)c1	-0.4	14	-6%	3	-6
CC(C)C[C@H](NC(=O)OC(C)(C)C)c1nnc(SCc2ccccc2)o1	3.3	11	0%	4	8
COc1ccc(N(CC(=O)N2CCCCCC2)S(=O)(=O)c2ccccc2)cc1	-15	.	.	.	-1
CC(=O)Nc1ccc(NC(=O)COc2ccc(Br)cc2C)cc1	1.9	-29	-2%	0	-3

A run of entries from the list above, as a working copy:
SMILES	RecA intein inh	YopH inh	Mtb H37Rv	Arbovirus inh	Mtb bLac sens	others
COc1cccc(NC(=S)N2CCC(NC(=O)c3ccco3)CC2)c1	0.8	.	.	.	-1
CC(C)(C)NCc1cc(Cl)ccc1OCc1ccccc1F	1.0	.	1%	23	-4
CCOc1ccc(S(=O)(=O)N2CCC(C(=O)N3CCCCCC3)CC2)cc1C	1.1	.	.	.	-12
O=C(CN1C(=O)C2CCCCC2C1=O)Nc1ccc(S(=O)(=O)Nc2ncccn2)cc1 (stereo not drawn)	-0.7	.	-4%	5	3
COc1ccc(NC(=O)C(=O)Nc2cccc3cccnc23)cc1OC	-1.0	.	.	.	3
C/C(=N\NS(=O)(=O)c1ccc(C(C)(C)C)cc1)c1ccccc1	3.5	.	.	.	43
CC1=C(C(=O)OCC2CCCO2)C(c2ccsc2)C2=C(CC(C)(C)CC2=O)N1 (stereo not drawn)	-9.3	.	8%	20	1
COc1ccc(S(=O)(=O)Nc2cc3c4c(c2)CCN4C(=O)CC3)cc1	-1.5	.	.	.	-13
CC(=O)n1cc(/C=N/NC(=O)c2sc(C)nc2C)c2ccccc21	.	-68	-1%	-8	-4
O=C(c1ccc(COc2ccc(Cl)cc2Cl)o1)N1CCCC1	9.6	.	.	.	3
COc1cccc(NC(=O)c2nc3ncccn3n2)c1	-0.4	14	-6%	3	-6
CC(C)C[C@H](NC(=O)OC(C)(C)C)c1nnc(SCc2ccccc2)o1	3.3	11	0%	4	8

Assay outcomes from PubChem.
